# Screening results from PubChem.
# Vaccinia stage: blocks a specific stage of Vaccinia orthopoxvirus infection; Vaccinia-infected cells, mCherry/Venus stage reporter fluorescence; active compounds read low; some inactives read as strong as hits; AID 1053133; activity change (mCherry), % (no concentration beside the values); 0.01% of 89,000 active;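 active = mCherry past -33% and 40 or more points under the early reporter, replicates agreeing; inconclusive = past -33% without that gap or agreement; tested in A549 cells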;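 also: scaled between vehicle wells and reference inhibitor wells; 23 nL library stock went into each well; one replicate is shown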
# Vaccinia stage Venus: recorded beside Vaccinia stage, whose call it bears; activity change (Venus), %; measured here: Venus reporter, other viral stage;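 negative = less Venus signal; first of two replicates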
# The depositor's hits bear a star; ? = inconclusive; . = no result given; & = joins results of further samples.
SMILES,Vaccinia stage,Vaccinia stage Venus
O=C(C[C@H]1CC[C@H](NC(=O)C2CC2)[C@H](CO)O1)NCc1ccncc1,3,9
CC(C)CC#Cc1ccc([C@H]2[C@H]3CN(C(=O)Nc4ccc(F)cc4)CC(=O)N3[C@H]2CO)cc1,?,.
CCO[C@H]1OC(C(=O)O)=C[C@@H](c2ccc(C(F)(F)F)cc2)[C@@H]1CCCO,15,9
C[C@H]1CCCCO[C@H](CN(C)C(=O)Nc2ccccc2)[C@@H](C)CN([C@@H](C)CO)C(=O)c2cc(NS(C)(=O)=O)ccc2O1,14,2
C[C@@H]1CN([C@H](C)CO)C(=O)Cc2cc(NS(=O)(=O)c3ccccc3)ccc2O[C@H]1CN(C)S(=O)(=O)c1cn(C)cn1,8,6
COc1ccc2c3c(n(C)c2c1)[C@H](CO)N(C(=O)NC(C)C)CC31CCN(C(=O)NC(C)C)CC1,13,8
O=C(c1cccc(F)c1)N1CCCCN2[C@@H](CO)[C@@H](c3ccc(-c4ccc(F)cc4)cc3)[C@@H]2C1,?,.
O=C(C1CCC1)N1CC(=O)N2[C@H](CO)[C@@H](c3ccc(C#CCc4ccccc4)cc3)[C@H]2C1,1,-1
CC(C)NC(=O)Nc1ccc2c(c1)C(=O)N([C@H](C)CO)C[C@@H](C)[C@H](CN(C)C(=O)Nc1ccc3c(c1)OCO3)O2,18,24
CO[C@H]1CN(C)C(=O)c2ccc(NC(C)=O)cc2OC[C@@H](C)N(CCC(F)(F)F)C[C@H]1C,4,8
O=C(Nc1ccc(C(F)(F)F)cc1)N[C@H]1CC[C@H](CCn2cc(C3(O)CCCC3)nn2)O[C@H]1CO,-14,-7
O=C(NCC[C@H]1CC[C@@H](NC(=O)C2CCC2)[C@H](CO)O1)Nc1ccc(Cl)cc1,7,8
C[C@@H]1CCCCO[C@@H](CN(C)CC2CCCCC2)[C@@H](C)CN([C@@H](C)CO)C(=O)c2cc(NC(=O)Nc3ccc4c(c3)OCO4)ccc2O1,?,.
C[C@@H]1CN([C@H](C)CO)S(=O)(=O)c2ccc(-c3cccc(C#N)c3)cc2O[C@@H]1CN(C)Cc1ccccn1,-23,-17
O=C(c1ccccc1)N1CC(=O)N2[C@H](CO)[C@H](c3ccc(C#CCC4CCCC4)cc3)[C@@H]2C1,?,.
Cc1noc(C)c1S(=O)(=O)N(C)C[C@@H]1Oc2ccc(NC(=O)NC3CCCCC3)cc2CC(=O)N([C@H](C)CO)C[C@@H]1C,3,3
C[C@@H]1CN([C@@H](C)CO)C(=O)Cc2cc(N(C)C)ccc2O[C@@H]1CN(C)S(=O)(=O)c1ccc(F)cc1,-3,-2
CCC(=O)N(C)C[C@H]1Oc2cc(C#CC3CC3)ccc2S(=O)(=O)N([C@H](C)CO)C[C@@H]1C,15,8
C[C@@H]1CN([C@@H](C)CO)C(=O)c2cc(NC(=O)Cc3cn(C)c4ccccc34)ccc2O[C@H]1CN(C)Cc1ccc(Cl)c(Cl)c1,?,.
C[C@@H]1CN([C@H](C)CO)C(=O)Cc2cc(NC(=O)Nc3ccc(F)cc3)ccc2O[C@@H]1CN(C)Cc1ccccc1,-27,-16
OC[C@@H]1[C@H](c2ccc(C#Cc3ccccc3F)cc2)[C@H]2CN(Cc3cncnc3)CCCCN12,?,.
COc1ccc2c3c([nH]c2c1)[C@@H](CO)N(C(=O)NC(C)C)CC31CCN(Cc2ccc(F)cc2)CC1,-33,-28
Cc1noc(C)c1NC(=O)Nc1cccc2c1O[C@H](CN(C)C(=O)NC(C)C)[C@H](C)CN([C@H](C)CO)C2=O,14,12
CCCNC(=O)N[C@H]1C=C[C@H](CC(=O)NC2CCCCC2)O[C@@H]1CO,5,11
CN(C)CC(=O)N[C@H]1CC[C@H](CCn2cc(C3CCCC3)nn2)O[C@@H]1CO,4,10
C[C@@H]1CN([C@@H](C)CO)C(=O)c2cc(NC(=O)Nc3ccc(F)cc3)ccc2O[C@@H](C)CCCCO[C@@H]1CN(C)S(=O)(=O)c1cn(C)cn1,32,5
CNC[C@H]1Oc2ccc(NC(=O)Nc3c(C)noc3C)cc2C(=O)N([C@H](C)CO)C[C@H]1C,3,8
C[C@H](CO)N1C[C@H](C)[C@@H](CN(C)CC2CCCCC2)Oc2c(NC(=O)c3ccncc3)cccc2C1=O,7,18
O=C(c1cccnc1)N1CC(=O)N2[C@H](CO)[C@H](c3ccc(-c4ccc(F)cc4)cc3)[C@H]2C1,4,4
CCCC(=O)Nc1ccc2c(c1)C(=O)N(C)C[C@@H](OC)[C@H](C)CN(Cc1ccccc1OC)[C@H](C)CO2,-4,-1

# Some of the entries above in another layout:
SMILES	Vaccinia stage	Vaccinia stage Venus
CCC(=O)N(C)C[C@H]1Oc2cc(C#CC3CC3)ccc2S(=O)(=O)N([C@H](C)CO)C[C@@H]1C	15	8
C[C@@H]1CN([C@@H](C)CO)C(=O)c2cc(NC(=O)Cc3cn(C)c4ccccc34)ccc2O[C@H]1CN(C)Cc1ccc(Cl)c(Cl)c1	?	.
C[C@@H]1CN([C@H](C)CO)C(=O)Cc2cc(NC(=O)Nc3ccc(F)cc3)ccc2O[C@@H]1CN(C)Cc1ccccc1	-27	-16
OC[C@@H]1[C@H](c2ccc(C#Cc3ccccc3F)cc2)[C@H]2CN(Cc3cncnc3)CCCCN12	?	.
COc1ccc2c3c([nH]c2c1)[C@@H](CO)N(C(=O)NC(C)C)CC31CCN(Cc2ccc(F)cc2)CC1	-33	-28
Cc1noc(C)c1NC(=O)Nc1cccc2c1O[C@H](CN(C)C(=O)NC(C)C)[C@H](C)CN([C@H](C)CO)C2=O	14	12
CCCNC(=O)N[C@H]1C=C[C@H](CC(=O)NC2CCCCC2)O[C@@H]1CO	5	11
CN(C)CC(=O)N[C@H]1CC[C@H](CCn2cc(C3CCCC3)nn2)O[C@@H]1CO	4	10
C[C@@H]1CN([C@@H](C)CO)C(=O)c2cc(NC(=O)Nc3ccc(F)cc3)ccc2O[C@@H](C)CCCCO[C@@H]1CN(C)S(=O)(=O)c1cn(C)cn1	32	5
CNC[C@H]1Oc2ccc(NC(=O)Nc3c(C)noc3C)cc2C(=O)N([C@H](C)CO)C[C@H]1C	3	8
C[C@H](CO)N1C[C@H](C)[C@@H](CN(C)CC2CCCCC2)Oc2c(NC(=O)c3ccncc3)cccc2C1=O	7	18
O=C(c1cccnc1)N1CC(=O)N2[C@H](CO)[C@H](c3ccc(-c4ccc(F)cc4)cc3)[C@H]2C1	4	4
CCCC(=O)Nc1ccc2c(c1)C(=O)N(C)C[C@@H](OC)[C@H](C)CN(Cc1ccccc1OC)[C@H](C)CO2	-4	-1

# Additional structures.
SMILES,Vaccinia stage,Vaccinia stage Venus
COc1cccc(C#Cc2ccc([C@H]3[C@H]4CN(C(=O)C5CC5)CC(=O)N4[C@H]3CO)cc2)c1,?,.
CC(C)C#Cc1cnc2c(c1)C(=O)N([C@H](C)CO)C[C@@H](C)[C@H](CN(C)C(=O)c1cnccn1)O2,26,7
COc1cccc(-c2ccc3c(c2)[C@@H]2[C@@H](CCN2S(=O)(=O)c2ccccc2F)[C@@H](CO)N3)c1,?,.
CO[C@@H]1CN(C)C(=O)c2ccc(NS(=O)(=O)c3cccc(F)c3)cc2OC[C@@H](C)N(C(=O)Cc2cccnc2)C[C@H]1C,14,9
C[C@H](CO)N1C[C@H](C)[C@@H](CN(C)S(C)(=O)=O)OCc2ccccc2-c2ccccc2C1=O,31,17
Cc1noc(C)c1NC(=O)N(C)C[C@@H]1Oc2c(NS(=O)(=O)c3ccc(Cl)cc3)cccc2C(=O)N([C@@H](C)CO)C[C@H]1C,9,7
C[C@@H]1CN([C@H](C)CO)C(=O)Cc2cc(NC(=O)Cn3cnnn3)ccc2O[C@H]1CN(C)S(=O)(=O)c1ccc(F)cc1,32,9
Cn1cnc(S(=O)(=O)N[C@@H]2CC[C@H](CC(=O)NCC3CC3)O[C@@H]2CO)c1,-3,3
O=C(C[C@@H]1CC[C@@H](NC(=O)NC2CCCCC2)[C@H](CO)O1)NCc1ccc(F)cc1,-3,0
O=C(Nc1ccccc1F)N1CC(=O)N2[C@H](CO)[C@H](c3ccc(-c4ccccc4)cc3)[C@@H]2C1,-9,-5
COc1ccc(CN(C)C[C@@H]2OCCCC[C@H](C)Oc3ccc(NS(=O)(=O)c4ccccc4)cc3C(=O)N([C@@H](C)CO)C[C@H]2C)cc1,-11,-7
CC(C)NC(=O)N(C)C[C@@H]1OCCCC[C@@H](C)Oc2ccc(NS(=O)(=O)c3ccc(Cl)cc3)cc2C(=O)N([C@@H](C)CO)C[C@@H]1C,13,6
C[C@@H]1CCCCO[C@@H](CN(C)C(=O)CCC(F)(F)F)[C@H](C)CN([C@H](C)CO)C(=O)c2cc(NC(=O)c3ccncc3)ccc2O1,0,-5
Cc1noc(C)c1S(=O)(=O)N(C)C[C@H]1OCCCC[C@H](C)Oc2ccc(NC(=O)Nc3ccccc3)cc2C(=O)N([C@H](C)CO)C[C@@H]1C,-8,-1
C[C@H](CO)N1C[C@H](C)[C@@H](CN(C)CC2CC2)Oc2c(NS(C)(=O)=O)cccc2C1=O,5&2,0&3
COc1ccc2c3c(n(C)c2c1)[C@H](CO)N(Cc1cccnc1)CC31CCN(C(=O)c2cccnc2)CC1,38,13
CCC(=O)Nc1ccc2c(c1)OC[C@@H](C)N(C(=O)C1CC1)C[C@@H](C)[C@H](OC)CN(C)C2=O,?,.
C[C@H]1CN([C@@H](C)CO)C(=O)c2cc(-c3ccccc3)cnc2O[C@@H]1CN(C)C(=O)c1ccccn1,13,15
CNC[C@@H]1Oc2ccc(NC(=O)CCCN(C)C)cc2CC(=O)N([C@H](C)CO)C[C@H]1C,13,2
C[C@@H]1CN([C@H](C)CO)C(=O)c2c(c3ccccc3n2C)-c2ccccc2CO[C@H]1CN(C)C(=O)Cc1ccccc1,-27,-14
C[C@@H]1CN([C@@H](C)CO)C(=O)Cc2cc(NC(=O)CCN3CCOCC3)ccc2O[C@@H]1CN(C)C(=O)Nc1ccc(F)cc1,29,10
CCCNC(=O)N1CC2(CN(Cc3cccc(F)c3)C2)c2c([nH]c3cc(OC)ccc23)[C@H]1CO,?,.
Cc1nn(C)cc1NC(=O)C[C@H]1CC[C@@H]2[C@@H](COc3ccc(NC(=O)C4CCOCC4)cc3C(=O)N2C)O1,0,-9
C[C@@H]1CN([C@H](C)CO)C(=O)Cc2cc(NC(=O)c3ccncc3)ccc2O[C@H]1CN(C)CC1CC1,15,12
CC(C)NC(=O)N[C@@H]1C[C@@H]2O[C@@H](CO)CC[C@@H]2O[C@@H]1CCc1ccc(-c2ccc(F)cc2)cc1,3,-4
C[C@H]1CN([C@@H](C)CO)C(=O)c2cc(C#Cc3ccccc3)cnc2O[C@@H]1CN(C)C(=O)c1ccccc1,-10,-22
CNC(=O)C[C@@H]1CC[C@@H]2[C@H](COc3ccc(NC(=O)c4ccccc4Cl)cc3C(=O)N2C)O1,12,17
Cc1noc(C)c1S(=O)(=O)N(C)C[C@@H]1OCCCC[C@@H](C)Oc2ccc(NC(=O)Nc3ccccc3)cc2C(=O)N([C@@H](C)CO)C[C@H]1C,-11,-8
CNC[C@H]1Oc2ccc(NC(=O)CCC(F)(F)F)cc2CC(=O)N([C@@H](C)CO)C[C@@H]1C,-2,-4
CC(C)[C@H](C)NC(=O)N(C)C[C@@H]1OCc2ccccc2-c2ccccc2C(=O)N([C@@H](C)CO)C[C@@H]1C,10,3
C[C@H](O)C#Cc1cnc2c(c1)C(=O)N([C@@H](C)CO)C[C@H](C)[C@@H](CN(C)C(=O)CC1CC1)O2,2,2
C[C@H]1CN([C@@H](C)CO)C(=O)c2cc(NC(=O)CCCCCC(=O)Nc3ccccc3N)ccc2O[C@@H]1CN(C)S(=O)(=O)c1cn(C)cn1,14,3
COc1ccc(CN(C)C[C@@H]2OCCCC[C@@H](C)Oc3ccc(NC(=O)CCCN(C)C)cc3C(=O)N([C@@H](C)CO)C[C@H]2C)cc1,0,0
C[C@H]1CN([C@@H](C)CO)C(=O)Cc2cc(NC(=O)CCN3CCOCC3)ccc2O[C@@H]1CN(C)C,5,3
C[C@@H]1CN([C@H](C)CO)C(=O)c2cc(N(C)C)ccc2O[C@@H](C)CCCCO[C@@H]1CN(C)C(=O)C1CCCCC1,-26,-20
COc1ccc2c3c([nH]c2c1)[C@H](CO)N(C(=O)C1CCCCC1)CC31CN(C(=O)NC(C)C)C1,10,-4
C[C@H]1CN([C@@H](C)CO)C(=O)Cc2cc(NC(=O)Cc3cn(C)c4ccccc34)ccc2O[C@H]1CN(C)C(=O)Nc1ccc2c(c1)OCO2,2,6
CO[C@@H]1CN(C)C(=O)c2cc(NC(=O)Nc3ccccc3F)ccc2OC[C@@H](C)N(S(=O)(=O)CC(F)(F)F)C[C@H]1C,-11,-6
C[C@H]1CN([C@@H](C)CO)C(=O)c2cc(NC(=O)CCN3CCOCC3)ccc2O[C@@H]1CN(C)S(=O)(=O)c1ccc(F)cc1,6,9
Cc1ccc(S(=O)(=O)N(C)C[C@@H]2Oc3c(NC(=O)c4ccc(-c5nccs5)cc4)cccc3C(=O)N([C@@H](C)CO)C[C@@H]2C)cc1,-33,-20
C[C@H]1CN([C@@H](C)CO)C(=O)c2cc(-c3ccc(F)cc3)cnc2O[C@H]1CN(C)Cc1cncnc1,11,7
O=C(NCC1CC1)[C@H]1[C@H](CO)[C@H]2Cn3c(ccc(-c4ccccc4F)c3=O)[C@@H]1N2Cc1cccnc1,-4,-1
CC(C)NC(=O)N[C@@H]1CC[C@@H](CCN)O[C@H]1CO,1,5
COc1cccc(C(=O)Nc2ccc3c(c2)C(=O)N(C)[C@@H]2CC[C@H](CC(=O)NCCCN4CCOCC4)O[C@@H]2CO3)c1,6,12
COc1ccccc1NC(=O)N[C@@H]1CC[C@H](CCn2cc(C3(O)CCCC3)nn2)O[C@H]1CO,-2,3
COc1ccc(NC(=O)Nc2ccc3c(c2)C(=O)N([C@@H](C)CO)C[C@H](C)[C@H](CN(C)Cc2ccc(C(F)(F)F)cc2)OCCCC[C@@H](C)O3)cc1,-17,-14

# These rows are one share of the data; count on the stated rates, not on these rows.
